# VDR inhibitor: vitamin D3 receptor (human) inhibition; P11473; VDR-SRC2-3 peptide fluorescence polarization, 2 h; Potency, µM, inactives show max response, negative = inhibition, most hits filed as inhibitors; 400,000 tested, 0.93% active; AID 504847; active = well fitted inhibition curve with a large enough effect; inconclusive = small, poorly fitted or top-dose-only effect, or another doubt; inactive = no such curve, though single readings can be large or run the other way; also: series mostly up to about 120 µM
# Target sequence (P11473 whole entry, looked up): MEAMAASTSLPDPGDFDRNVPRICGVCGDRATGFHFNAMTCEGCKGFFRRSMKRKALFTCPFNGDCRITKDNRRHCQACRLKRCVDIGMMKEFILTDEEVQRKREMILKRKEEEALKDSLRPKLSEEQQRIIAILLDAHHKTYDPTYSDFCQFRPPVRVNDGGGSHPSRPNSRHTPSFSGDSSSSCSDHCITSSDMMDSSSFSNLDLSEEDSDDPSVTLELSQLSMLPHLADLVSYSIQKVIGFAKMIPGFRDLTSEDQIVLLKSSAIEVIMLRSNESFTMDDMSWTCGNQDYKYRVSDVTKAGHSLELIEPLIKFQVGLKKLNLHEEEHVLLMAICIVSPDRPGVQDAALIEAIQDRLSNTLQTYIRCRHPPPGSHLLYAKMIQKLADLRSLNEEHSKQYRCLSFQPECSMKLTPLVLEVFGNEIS
#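 Inhibition of the VDR/SRC2-3 peptide interaction is quantified by fluorescence polarization. Compounds (23 nl, pintool) incubate with the reagents for 2 hours at ambient room temperature.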
# * hit, by the source's call; ? = inconclusive; & = joins results of further samples. % is scaled to controls: 0 for no effect and ±100 for the full control effect; potency is read from the fitted curve at half-maximal effect. Not all compounds are listed; count on the stated rates, not on these rows.
VDR inhibitor,Structure
4.2%,CC(C)COC(=O)N1C[C@H](O)C[C@H]1C(=O)Nc1ccc(Cl)cc1
11.2%,CCOC(=O)c1c(NC(=O)COC(=O)CCCOc2ccc(OC)cc2)sc(C(=O)N(C)C)c1C
4.9%,CS(=O)(=O)N1N=C(c2ccco2)CC1c1ccc(Cl)cc1Cl (centres undefined)
1.0%,COC(=O)C1=C(C)N(Cc2ccco2)C(=O)N[C@H]1c1ccccc1
-1.2%,Cc1ccc(CNC(=O)C(=O)NCC(c2ccco2)N2CCOCC2)cc1 (centres undefined)
-10.4%,CC(=O)c1ccc(NC(=O)CNCc2cccs2)cc1
7.0%,C[N+](C)(C)CCN(Cc1ccc(Cl)cc1)c1ccccn1
?,C/C(=N\Nc1ccc(Cl)c(C(=O)O)c1)c1cccc2ccccc12
8.2%,O=C(Nc1ccc(S(=O)(=O)Nc2ccnn2-c2ccccc2)cc1)C(F)(F)F
-12.3%,Cc1cc(C)cc(NC(=S)N2CCC(NC(=O)C3CC3)CC2)c1
-7.4%,Cc1cccc(OCC(=O)Nc2ccccc2-c2ccccc2)c1
9.4%,O=C(COC(=O)CCCSc1nc2ccccc2[nH]1)Nc1cccc(F)c1
-3.2%,COc1ccccc1NC(=O)Cn1nc(-c2ccc(Cl)cc2)c2ccccc2c1=O
-12.1%&8.5%,Cc1nc(SCCOc2ccccc2F)[nH]c(=O)c1Cc1ccccc1
8.5%,c1ccc2sc(NN=C3CCCCCC3)nc2c1
-10.9%,Cc1ccccc1NNC(=O)C(=O)NNc1ccccc1C
18.1%,CCc1nnc(NC(=O)CSc2ncnc3scc(-c4ccc(C)cc4)c23)s1
-7.0%,CC(C)Sc1nc2c([nH]1)c(=N)ncn2Cc1ccccc1
-1.9%,CCCc1nc2scc(-c3ccccc3)c2c(=O)n1N
-0.4%,CS(=O)(=O)N1CCC2(CC1)CN(c1ccncc1)C2
-14.5%,COc1cccc(NC(=O)CN(C)C(C)C(=O)NC(C)c2ccc(Cl)cc2Cl)c1 (centres undefined)
-11.6%,COc1cc(/C=C/C(C)=O)cc(OC)c1OC
13.0%,CCN(c1ccccc1)S(=O)(=O)c1ccc(C(=O)Nc2ccccn2)cc1
2.3%,COc1ccc(C(=O)NCC(=O)NCC(=O)OCC(=O)c2ccc(C)cc2)cc1
?,O=C1Nc2ccccc2C1=Nc1ccccc1-c1ccccc1
2.9%,O=C(CN(Cc1ccc(Cl)cc1)C(=O)CNS(=O)(=O)c1ccccc1)NCC1CCCO1 (centres undefined)
-7.2%,O=C(CN1CCN(S(=O)(=O)c2ccccc2)CC1)Nc1ccccc1C(=O)c1ccccc1
2.5%,Cc1ccc(N2C(=O)c3cccc4cccc(c34)C2=O)cc1
-6.7%,N#C/C(=C\c1ccc(Sc2ccccc2)o1)c1nc2ccccc2[nH]1
-5.8%,CC1CCCCC1NC(=O)CCC(=O)N1CCOc2ccc(Cl)cc21 (centres undefined)
-3.7%,CCOc1ccc(Cn2c(CNS(=O)(=O)c3ccc(CC)cc3)nc3cccnc32)cc1
13.9%,Cc1cccc(NC(=O)CCN2CCCCC2)c1
1.0%,Cc1ccc(S(=O)(=O)NC(CC(=O)NCC2CCCO2)c2ccco2)cc1 (centres undefined)
13.7%,Cc1cc(-c2ccc(C)c(S(=O)(=O)N3CCN(c4ccc(F)cc4)CC3)c2)on1
5.2%,CCOc1ccc(CCNC(=O)c2ccc(-c3nc(CSc4ccc(C)cc4)c(C)o3)cc2)cc1
-13.5%,Cc1noc(C)c1S(=O)(=O)Nc1ccc2c(c1)C(=O)N([C@H](C)CO)C[C@H](C)[C@@H](CN(C)S(=O)(=O)c1ccccc1)O2
12.3%,CCC1=NN2C(=N)/C(=C\c3cccn3-c3c(C)cccc3C)C(=O)N=C2S1
-6.5%,O=C(NCCN1CCOCC1)c1ccc2c(c1)N(Cc1ccccc1F)C(=O)c1ccccc1S2
-2.2%,O=C(CN1CCN(Cc2ccccc2)CC1)NCCc1ccccc1
-3.1%,CN(CC(O)COc1ccc(S(=O)(=O)N2CCOCC2)cc1Cl)C1CCCCC1 (centres undefined)

# 2 entries from above, field by field.
> CCOc1ccc(CCNC(=O)c2ccc(-c3nc(CSc4ccc(C)cc4)c(C)o3)cc2)cc1
  VDR inhibitor = 5.2%

> Cc1ccc(S(=O)(=O)NC(CC(=O)NCC2CCCO2)c2ccco2)cc1 (centres undefined)
  VDR inhibitor = 1.0%

# Next section:
VDR inhibitor,Structure
-7.5%,Cn1nc(C(=O)N2CCc3ccccc32)c2ccccc2c1=O
6.8%,CC(CCc1ccccc1)NC(=O)C(=O)N1CCOCC1 (centres undefined)
7.2%,Cc1cc(N2CCN(C)CC2)nc2ccc(NC(=S)NCCCN3CCc4ccccc4C3)cc12
11.0%,C=CCNc1nc(N2CCOCC2)nc(N2CCOCC2)n1
7.1%,COc1cccc(C(=O)Nc2cc(-c3cn4cccnc4n3)ccc2C)c1
3.3%,O=S(=O)(/N=C(/Nc1cccc2ccccc12)c1ccccc1)c1cccs1
-6.9%,Cc1noc(C)c1CSc1nc2[nH]ncc2c(=O)n1-c1ccccc1
-23.5%,Cc1ccc(S(=O)(=O)c2cn(CC(=O)Nc3ccccc3)c3cc4c(cc3c2=O)OCO4)cc1
5.9%,CCOc1ccccc1NC(=O)N1CCCn2nc(C)cc21
0.2%,CN(CC(O)COCc1ccccc1F)C1CCCCC1 (centres undefined)
18.9%,COc1ccc(NC(=O)C2CCCN(C(=O)Nc3ccc(F)cc3)C2)cc1OC (centres undefined)
-6.4%,COc1ccc2c(CC(=O)NNC(=O)c3ccc(O)cc3)coc2c1
12.3%,CCNC(=O)c1ccccc1CCc1ccccc1
?,Cc1ccc(/C=C2\C(=O)ON=C2c2ccccc2)o1
2.3%,COc1cc(S(=O)(=O)NCCN2CCOCC2)c(OC)cc1Cl
?,COc1ccc(C(=O)N2CCC3(CCCN(Cc4nccs4)C3)CC2)cc1
-0.1%,CCOC(=O)N1CCN(C(=O)c2ccc(S(=O)(=O)c3ccc(C)cc3)c(NC(C)=O)c2)CC1
-1.4%,c1ccc(-c2csc3ncnc(N4CCN(Cc5ccc6c(c5)OCO6)CC4)c23)cc1
-7.9%,Nc1ncn(C2CC(O)C(CO)O2)c(=O)n1 (centres undefined)
-0.1%,O=C(Cc1ccc(Br)cc1)Nc1ccccc1Cl
-11.2%,O=C1C(=O)N(CC(=O)N2CCCC2)c2ccccc21
?,COc1ccc(SCCN2CCN(CCc3ccccc3)CCC2=O)cc1
4.5%,Cc1ccc(C(=O)Nc2ccc(N3CCCCC3)cc2)cc1
10.0%,Cc1nc2ccc(NS(=O)(=O)c3ccc(F)c(F)c3)cc2s1
-13.5%,CC1CCCC(NC(=O)CSc2ncccn2)C1C (centres undefined)
5.3%,O=C(Oc1cccc(Nc2ncnc3ccccc23)c1)c1ccccc1Cl
4.6%,COc1ccc(/C(O)=C2/C(=O)C(=O)N(CC3CCCO3)C2c2cccc(OC)c2)cc1 (centres undefined)
-11.3%,CCc1nnc(NC(=O)c2ccc(S(=O)(=O)N3CCN(Cc4ccccc4)CC3)cc2)s1
-4.3%,Cc1cccc(N=C2CSC(=O)N2)c1
-3.7%,O=C(Nc1nc2c(cc3c4c(cccc42)CC3)s1)c1ccccc1Cl
3.0%,COCCN(Cc1cn[nH]c1-c1ccc2cc(OC)ccc2c1)C(C)C
?,CCOC(=O)C1CCN(C2=C(NS(=O)(=O)c3ccc(Br)cc3)C(=O)c3ccccc3C2=O)CC1
-21.3%,COc1cc(CCC(=O)O)on1
-13.3%&8.5%,N[C@@H](C(=O)O)c1ccc(O)c(C(=O)O)c1
6.4%,Cc1ccc(OCc2nc(C#N)c(NCc3ccco3)o2)cc1
10.0%,O=C(Cn1ccsc1=NC(=O)C(F)(F)F)c1ccccc1
-17.4%,COC(=O)C1=C(N)OC2=C(C(=O)CCC2)C1c1cccs1 (centres undefined)
-26.8%,COc1cccc(C2N(c3ccc(Cl)cc3)C(=O)C3CCCN32)c1 (centres undefined)
-17.9%,COc1ccc(CCC(=O)N/N=C\c2cccs2)cc1
4.6%&-3.1%,COc1ccc(S(=O)(=O)NC(C)C)cc1-n1cnnn1
-3.8%,COc1cc2[nH]c(C(=O)Nc3ccc4c(c3)OCCO4)cc2c(OC)c1OC
2.7%,CCC(C)NCCOCCOc1ccc(Cl)c(C)c1C (centres undefined)
0.1%,NCC1O[C@@H](O[C@@H]2C(O)[C@H](O[C@H]3OC(CO)C(O)C(N)C3O)[C@@H](N)C[C@H]2N)C(N)C(O)C1O (some centres undefined)
-24.1%,O=C(CCN1CCCCC1)NNC(=O)C12CC3CC(CC(C3)C1)C2
7.7%,CC(C)=CCN1CCN(CCCn2cccn2)CC1CCO (centres undefined)
-4.2%,CCOc1ccc(CNC(=O)c2ccc(NC(=O)c3nsc4ccccc34)cc2)cc1
-11.7%,COCc1oc2ccc(NS(=O)(=O)c3ccc(C)cc3)cc2c1C(=O)OC
-12.2%,CCOC(=O)c1c(NC(=O)C2COc3ccccc3O2)sc2c1CCN(Cc1ccccc1)C2 (centres undefined)
-16.0%,O=C(c1ccco1)N1CCC2(CC1)CN(c1ccc(-c3ccccc3)cc1)C2
15.5%,Cc1ccc(S(=O)(=O)CC(=O)Nc2nc3c(C)cc(C)cc3s2)cc1
2.7%,Cc1onc(-c2ccccc2Cl)c1C(=O)NNC(=O)c1ccc(F)cc1
-3.2%,Cc1cc(=O)oc2cc(OCC(=O)NCCCN3CCCC3=O)ccc12
6.3%,CCC(C)c1ccccc1N1CC(C(=O)N2CCN(S(=O)(=O)c3cccc([N+](=O)[O-])c3)CC2)CC1=O (centres undefined)
3.5%,COc1ccccc1NC(=O)Cn1c(C)cc(C)c(C#N)c1=O
10.6%,CC(C)(C)c1ccc(C(=O)c2c[nH]c(C(=O)O)c2)cc1
1.1%,COc1cccc(OC)c1C(=O)Nc1ccc(S(=O)(=O)N2CCCCC2)cc1

# Next section:
VDR inhibitor,Structure
-0.4%,COc1ccc2[nH]c(=O)cc(C(=O)O)c2c1
2.9%,O=C(c1cccc(C(F)(F)F)c1)N1CCCC1
-9.7%,COCC(C)n1c(C)cc(C(=O)COC(=O)c2ccc3c(c2)NC(=O)CS3)c1C (centres undefined)
-5.1%,O=C(Nc1cccc(S(=O)(=O)Nc2ccc(SC(F)F)cc2)c1)C1CCC1
-17.8%,Cc1ccc(NC(=O)c2cc(=O)c3ccccc3o2)cc1S(=O)(=O)N1CCOCC1
7.1%,O=C(NC1=NCCS1)c1ccc(OCC2CCCO2)cc1 (centres undefined)
-3.6%,O=C1C(c2ccc(F)cc2)N(Cc2ccc3c(c2)OCO3)C(=O)CN1C1CCCC1 (centres undefined)
-2.8%,COc1cc(OC)nc(NC2OC(=O)c3ccccc32)n1 (centres undefined)
-1.3%,COc1cc2ccccc2cc1C(=O)Nc1ccc(Br)cn1
5.2%,Cc1ccc(S(=O)(=O)N2CCN(C(=O)COC(=O)Cc3c(F)cccc3Cl)CC2)c(C)c1
7.9%,COc1ccc(N2C(=O)CSC2c2cccs2)cc1 (centres undefined)
15.0%&10.3%,CCC(C)NC(=O)Cn1ccc2cc(S(=O)(=O)N3CCCCCC3)ccc21 (centres undefined)
-3.4%,COc1ccc(OCCCC(=O)N2CCCc3ccccc32)cc1
16.4%,Cc1nc(SCc2nc3c(O)cccc3[nH]2)c2oc3ccccc3c2n1
0.2%,Cc1nc(N2CCN(S(=O)(=O)c3cccc4nonc34)CC2)c2c3c(sc2n1)CCCC3
-0.3%,CC(NC(=O)COc1ccccc1)C(=O)N1CCN(c2ccc(F)cc2)CC1 (centres undefined)
4.8%,CCSc1nnc(NC(=O)Cc2ccccc2OC)s1
-9.1%,O=C(Cc1ccccc1)NNS(=O)(=O)c1ccc(F)cc1
-3.6%,Cc1c(NC(=S)NC(=O)c2ccccc2)c(=O)n(-c2ccccc2)n1C
6.3%,Cc1cc(C(=O)N2CCCC(Nc3ccccc3)C2)c2ccc(F)cc2n1 (centres undefined)
-13.0%,CCN1CCN(CCCNC(=O)c2ccc(/C=C3/Oc4ccccc4N(Cc4cccc(C)c4)C3=O)cc2)CC1
0.0%,CCOC(=O)C1CCN(C(=O)c2ccc3c(c2)NC(=O)/C(=C\c2cccc(C)c2)S3)CC1
-0.3%,CCOC(=O)c1[nH]c2c(c1Cc1ccccc1C)C(=O)CC(c1ccccc1)C2 (centres undefined)
1.7%,COc1ccc(-n2c(=O)c3ccccc3n(Cc3cccc(C)c3)c2=O)cc1

# Of the compounds above, five contain a COOH group.
VDR inhibitor,Structure
?,C/C(=N\Nc1ccc(Cl)c(C(=O)O)c1)c1cccc2ccccc12
-21.3%,COc1cc(CCC(=O)O)on1
-13.3%&8.5%,N[C@@H](C(=O)O)c1ccc(O)c(C(=O)O)c1
10.6%,CC(C)(C)c1ccc(C(=O)c2c[nH]c(C(=O)O)c2)cc1
-0.4%,COc1ccc2[nH]c(=O)cc(C(=O)O)c2c1

# Next section.
VDR inhibitor,Structure
-0.9%,COc1ccc(OC)c(CCNC(=O)c2ccccc2NC(=O)C2=C(C)OCCS2)c1
-0.8%,CCn1c(CN2C(=O)CSc3ccccc32)n[nH]c1=S
-10.4%,COc1ccc(N2CCN(c3ccc(NC(=O)c4ccc5c(c4)OCO5)cc3C#N)CC2)cc1
-3.9%,CN1CCc2c(sc3c2C(=O)NC(c2cn(Cc4ccccc4)c4ccccc24)N3)C1 (centres undefined)
18.6%,Cc1onc(-c2ccccc2Cl)c1C(=O)N(C)C1CCCCC1
2.5%,CCc1ccc(CNC(=O)CN2C(=O)CCn3nc(-c4cn(C)c5ccccc45)cc32)cc1
-2.5%,COc1ccc(NC(=O)CN(C)C(=O)c2ccc(NS(=O)(=O)c3cccc([N+](=O)[O-])c3)cc2)cc1
-13.7%,COc1ccc(NC(=O)CN(C)C(=O)c2cccc(S(=O)(=O)N3CCN(c4ccccc4)CC3)c2)cc1

# Compound activity from PubChem BioAssay.
